# Assay outcomes from PubChem.
# gsp antag = antagonizes gsp, the McCune-Albright syndrome mutation. actives 0.4% (n = 340,000). Potency, µM (top dose mostly 76.9 µM), for inactives: top-dose activity change, negative = inhibition, actives largely listed as inhibitors. gsp-mutant cells, cAMP HTRF, 30 min; control for the full effect not named in the record. AID 624288; active = falling curve of any shape with a large fitted effect; inconclusive = falling curve, mostly with a smaller effect; inactive = flat or rising curve; cell line not stated here;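 further: intracellular cAMP measured with PDE inhibitor Ro 20-1724 present during compound exposure; potency means the concentration at half of the fitted maximal effect; on the % scale 0 is the no-effect control and ±100 the full control effect; nearly all actives have a fitted effect of over 65% in size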
#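 Measurement of cellular cAMP by homogeneous time-resolved fluorescence following a 30 min compound exposure at 37C. The PDE inhibitor […] was present throughout; the assay buffer was DPBS with 0.05% BSA and 0.005% Tween 20.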
# Six1-Eya2 inh = inhibitors of human Six1/Eya2 interaction | Q15475+O00167 | AlphaScreen GST-Six1/His-Eya2 binding, biochemical; active compounds read low; control for the full effect not named in the record | activity change, % (concentration not given with the values) | actives 0.56% (n = 360,000); in the data active = activity change below about -65%; inconclusive = about -30% to -65%; inactive = above about -30%; further: on the % scale 0 is the no-effect control and ±100 the full control effect
# Target sequence (O00167 whole entry, looked up): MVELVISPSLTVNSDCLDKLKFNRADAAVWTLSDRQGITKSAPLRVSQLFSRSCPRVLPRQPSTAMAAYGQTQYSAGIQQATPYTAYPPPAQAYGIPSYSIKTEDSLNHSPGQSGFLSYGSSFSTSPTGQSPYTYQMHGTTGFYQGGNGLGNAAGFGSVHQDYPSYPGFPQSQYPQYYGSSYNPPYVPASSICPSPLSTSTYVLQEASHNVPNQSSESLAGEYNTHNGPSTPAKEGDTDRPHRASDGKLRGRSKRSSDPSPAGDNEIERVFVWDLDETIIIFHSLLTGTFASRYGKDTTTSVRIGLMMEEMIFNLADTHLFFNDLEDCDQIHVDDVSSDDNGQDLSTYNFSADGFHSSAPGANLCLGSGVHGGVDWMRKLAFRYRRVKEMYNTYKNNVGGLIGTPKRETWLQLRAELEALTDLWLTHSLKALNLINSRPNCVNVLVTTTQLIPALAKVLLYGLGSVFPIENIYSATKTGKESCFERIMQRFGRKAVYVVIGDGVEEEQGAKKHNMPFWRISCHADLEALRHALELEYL
# Target sequence (Q15475 whole entry, looked up): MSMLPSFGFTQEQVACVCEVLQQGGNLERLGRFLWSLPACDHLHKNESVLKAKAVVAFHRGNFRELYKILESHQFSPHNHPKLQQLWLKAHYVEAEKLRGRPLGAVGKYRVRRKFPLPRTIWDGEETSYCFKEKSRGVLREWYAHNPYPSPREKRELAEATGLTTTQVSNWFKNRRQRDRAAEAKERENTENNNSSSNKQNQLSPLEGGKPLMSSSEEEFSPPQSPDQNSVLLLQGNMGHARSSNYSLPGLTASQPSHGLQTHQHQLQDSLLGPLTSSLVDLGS
#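 GST-Six1 + His-Eya2 (5X stock: 250/500 nM); Tris pH 8.0, 300 mM NaCl, 0.05% BSA, 0.02% Tween 20; GSH donor/Ni acceptor beads; 1 h 37 °C dark; AlphaScreen readout.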
# gsp ag = agonists of gsp mutant (McCune-Albright syndrome); Potency, µM (top dose mostly 76.9 µM), for the others: at the top dose activation (cAMP increase), usual class: activators; AID 624287; actives 0.13% (n = 340,000); gsp mutant cells, cAMP HTRF, 30 min; control for the full effect not named in the record; active = well fitted activation curve with a large enough effect; inconclusive = small, poorly fitted or top-dose-only effect, or another doubt; inactive = no such curve, though single readings can be large or run the other way; cell line not stated here;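 further: phosphodiesterase inhibitor Ro 20-1724 added with compounds to block cAMP breakdown; potency means the concentration at half of the fitted maximal effect; nearly all actives have a fitted effect of over 60% in size; about a fifth of the inactives were tested at one dose only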
#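 Cells stably selected in G418 were plated at 2000/well, grown 16-24 hr, then given compounds in DMSO with the PDE inhibitor […] (300 uM solution added) for 30 min at 37C; cAMP was read by HTRF.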
# D2 PAM = human D2 receptor positive allosteric modulation | P14416 | DiscoveRx D2 beta-arrestin cells, luminescence, 90 min; 100% = 57 uM dopamine signal | potentiation, % (no concentration beside the values) | actives 0.23% (n = 360,000) | AID 624464; active = potentiation of 50% or more; inconclusive = 30% to 50%; inactive = 30% or less;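 further: compound concentration not given in the record; tested on top of an EC20 dose of dopamine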
#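 PathHunter D2 cells, attached overnight at 37 deg C, received compound in DMSO plus dopamine at EC20 (50 nM final) for 90 min at 37 deg C. Beta-arrestin recruitment was read as luminescence after 1 h with detection reagent at ambient temperature.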
# D2 ag = agonists of human D2 dopamine receptor (beta-arrestin); DiscoveRx PathHunter D2 beta-arrestin, luminescence, 90 min; 100% = 57 uM dopamine signal; activation, % (concentration not given with the values); actives 0.084% (n = 360,000); AID 624465; in the data active = activation above about 40%; inconclusive = about 15% to 40%; inactive = below about 15%; further: compound concentration not given in the record; the text of the record calls up to 30% inactive
#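 Agonist mode: compounds alone added to overnight-plated D2 PathHunter cells for 90 min at 37 C, with 57 uM final dopamine (EC100) defining full response. Beta-arrestin recruitment detected by chemiluminescent reagent, read after 1 h at ambient temperature.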
# CtBP-E1A blk = inhibitors of CtBP/E1A interaction; AlphaScreen GST-E1A/His-CtBP binding, 1536-well; active compounds read low; control for the full effect not named in the record; AID 651724; activity change, % (no concentration beside the values); actives 0.49% (n = 340,000); in the data active means activity change below about -65%; inconclusive means about -30% to -65%; inactive means above about -30%; further: on the % scale 0 is the no-effect control and ±100 the full control effect
#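 In 5 uL wells, 23 nL compound meets equimolar GST-E1A and His-CtBP (5X stock 125 nM each) for 2 h, 37 °C. Beads (5X, 50 ug/mL) then 1 h, 37 °C, dark.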
# Active calls of the source: *; ? = inconclusive; nt = no result given; [ ] = remark or other dose.
SMILES,gsp antag,Six1-Eya2 inh,gsp ag,D2 PAM,D2 ag,CtBP-E1A blk
Cc1nc(N/C(N)=N/S(=O)(=O)c2ccccc2)nc2ccccc12,1%,-20,-6%,-3,1.8,-22
CC(C)NC(=O)N(C)C[C@H]1Oc2c(cccc2N(C)C)C(=O)N([C@H](C)CO)C[C@@H]1C,5%,0,nt,3,-1.2,6
CSCCC(NC=C1C(=O)OC(C)(C)OC1=O)C(=O)O (configuration not stated),-5%,6,0%,8,-3.0,5
Cc1ccc(S(=O)(=O)NC2CCCCC2)c2nsnc12,0%,-3,-22%,-16,-4.0,-9
CCN(CC)C(=O)CCCOc1ccc(Cl)cc1Cl,0%,11,-47%[inhibitor],-8,-7.2,6
N#CCN(N=Nc1ccccc1)c1ccccc1,1%,-1,24%,-4,-2.1,0
CN(/N=C/c1cccnc1)c1cnn(-c2ccc(F)c(Cl)c2)c(=O)c1Cl,6%,1,7%,-6,-2.8,-1
O=C(Nc1cc(Cl)cc(Cl)c1)C1CC(=O)N(C2CCCC2)C1 (configuration not stated),3%,-8,2%,-27,-2.6,7
CC(C)CC(NS(=O)(=O)c1ccc2[nH]c(=O)c(=O)[nH]c2c1)C(=O)O (configuration not stated),5%,9,6%[15.4 µM],-4,-2.1,-1
COC(=O)c1cc(C(=O)OC)cc(S(=O)(=O)Nc2ccc(Cl)c(N)c2)c1,-16%,-1,0%,27,-0.3,0
CNc1ccc2ncc(-c3ccccc3C(C)=O)n2n1,nt,-2,nt,-7,-6.3,2
COc1ccc(S(=O)(=O)N2CCC(C(=O)N3CCCC3)CC2)cc1Cl,-13%,5,-12%,-10,-3.6,-9
O=C(Cn1c(=S)[nH]c2ccccc2c1=O)N1CCN(c2ccccc2)CC1,4%,0,6%[15.4 µM],-3,-3.7,1
Cc1cc(C(=O)Nc2nncs2)oc1C,-8%,-1,-13%,-2,-6.0,-5
Cc1ccc(C2CC2c2n[nH]c(=S)n2-c2cccc(Cl)c2)cc1 (configuration not stated),-21%,1,-16%,-1,3.2,6
NC(=O)c1ccccc1NC(=O)CCc1ccccc1,7%,5,-4%,-9,0.0,6
O=C(N/C=C/n1cnc2cc(C(F)(F)F)ccc21)c1ccccc1,-1%,6,-13%[15.4 µM],-1,-0.6,8
CC(=O)Oc1ccc(C2(C)CC(C)(C)NC(=S)N2C)c(OC(C)=O)c1 (configuration not stated),12%,-23,5%,-1,-8.9,-8
C=CCNC(=O)c1ccc(CNS(=O)(=O)c2ccc(NC(C)=O)cc2)cc1,4%,-1,-7%,-11,-2.9,2
Cc1nnc(NC(=O)CSc2nnc(Cc3cccn3C)n2C)s1,1%,-2,-18%,-11,-4.3,-3
COc1ccc(-n2c(-c3ccc(Cl)cc3)c[n+]3c2CCCCC3)cc1,12%,9,-41%[inhibitor],-16,-7.2,5
CCn1c(SCc2cc(=O)[nH]c3ccccc23)nnc1C1CC1,-12%,-10,14%[15.4 µM],-9,-0.6,17
COc1cccc(CN2CCN(C(=O)c3cc(-c4ccncc4)nc4ccc(C)cc34)CC2)c1,-15%,-15,-2%,-23,14,-4
CS(=O)(=O)Nc1ccccc1C(=O)NCC1(N2CCCCC2)CCCCC1,-8%,2,20%,-8,2.4,6
COc1ccc(CCCC(=O)NCCc2ccccc2)cc1,5%,7,?,6,-2.8,6
CN(CC(=O)Nc1ccc(F)c(F)c1F)C(=O)c1ccc(=O)[nH]c1,11%,5,-1%,6,-0.7,10
COC(=O)c1ccccc1S(=O)(=O)N1CCC(C(=O)NCc2ccco2)CC1,1%,0,0%,-2,-2.8,-16
COc1ccc(S(=O)(=O)NCCC(=O)OCC(=O)c2ccc[nH]2)cc1[N+](=O)[O-],-1%,2,-12%,1,-1.9,nt
C[C@@H]1CN([C@H](C)CO)C(=O)c2cc(Br)cnc2O[C@H]1CN(C)Cc1cccnc1,nt,1,24%,-4,-0.9,1
CCCOc1c(Cl)cc(C(=O)NC)cc1OC,4%,-4,-10%[15.4 µM],-4,-5.3,0
Cc1ccc(-n2nc3ccc(NC(=S)NC(=O)/C=C/c4ccco4)cc3n2)cc1,20%,-10,0%,-30,-2.3,-14
Cc1ccc(N2C(=O)C3NN=C(C(=O)OCc4ccccc4)C3C2=O)c(C)c1 (configuration not stated),3%,3,-6%[15.4 µM],-2,-4.1,-1
O=c1n(-c2ccccc2)c(=O)n2n1CCCC2,-13%,1,-33%[inhibitor],-1,-0.3,7
O=C(CSc1ccc(Cl)cc1)Nc1ccc(N2CCN(c3ccccc3)CC2)c(F)c1,6%,0,0%,-5,-2.7,6
COc1ccc(C2Nc3ccccc3C(=O)N2C2CCCCC2)cc1 (configuration not stated),-21%,14,31%,-31,-4.7,nt
Cc1ccc(N2C(=O)N3[C@H]4c5ccccc5OC[C@@H]4[C@@H](c4ccccc4)[C@@]3(C)C2=O)cc1,-9%,-8,nt,-14,-0.1,5
Nn1c(Cc2cccc3ccccc23)nnc1SCC(=O)NC1CCS(=O)(=O)C1 (configuration not stated),5%,11,27%,-5,0.9,-4
O=C(N/N=C(\CC(=O)c1cccs1)C(F)(F)F)c1cccnc1,-17%,5,4%[15.4 µM],-11,-8.4,6
Cc1ccccc1-c1noc(-c2ccccc2C(=O)NCc2ccco2)n1,-2%,3,-2%[15.4 µM],-4,-15,1
CCOc1c2ccc(C(=O)NCc3ccco3)cc2nn1CCOC,3%,-1,-30%,1,-4.1,6

# Of the compounds above, these contain an aryl methoxy group:
SMILES,gsp antag,Six1-Eya2 inh,gsp ag,D2 PAM,D2 ag,CtBP-E1A blk
COc1ccc(S(=O)(=O)N2CCC(C(=O)N3CCCC3)CC2)cc1Cl,-13%,5,-12%,-10,-3.6,-9
COc1ccc(-n2c(-c3ccc(Cl)cc3)c[n+]3c2CCCCC3)cc1,12%,9,-41%[inhibitor],-16,-7.2,5
COc1cccc(CN2CCN(C(=O)c3cc(-c4ccncc4)nc4ccc(C)cc34)CC2)c1,-15%,-15,-2%,-23,14,-4
COc1ccc(CCCC(=O)NCCc2ccccc2)cc1,5%,7,?,6,-2.8,6
COc1ccc(S(=O)(=O)NCCC(=O)OCC(=O)c2ccc[nH]2)cc1[N+](=O)[O-],-1%,2,-12%,1,-1.9,nt
CCCOc1c(Cl)cc(C(=O)NC)cc1OC,4%,-4,-10%[15.4 µM],-4,-5.3,0
COc1ccc(C2Nc3ccccc3C(=O)N2C2CCCCC2)cc1 (configuration not stated),-21%,14,31%,-31,-4.7,nt

# Carrying on:
SMILES,gsp antag,Six1-Eya2 inh,gsp ag,D2 PAM,D2 ag,CtBP-E1A blk
CN1CCC(NC(=O)C2(C)CCN2Cc2ccc3ccccc3c2)CC1 (configuration not stated),nt,5,nt,-12,-4.7,9
CS(=O)(=O)c1ccc(C(=O)Nc2cc(S(C)(=O)=O)ccc2Cl)cc1,-6%,3,4%,-7,-0.8,14
Cc1ccc(S(=O)(=O)N2CCOCC2)c2nsnc12,1%,2,-65%[inhibitor],-7,-0.4,-2
Cc1cc(C)nc(NC(=O)c2ccc(Br)cc2)n1,-5%,4,-11%,-2,0.1,-5
COc1ccc(/C=C2\Oc3cc(OCC(=O)N4CCC(C(=O)O)CC4)ccc3C2=O)c(OC)c1,-10%,4,nt,18,7.6,4
COc1cc(NC(=O)c2ccco2)c(OC)cc1NC(=O)CCC(=O)Nc1cc(C)ccc1C,3%,-11,-66%[inhibitor],-3,-3.0,-5
O=C(O)C1CCN(C(=O)CSc2nc3ccccc3s2)CC1,10%,-3,0%[15.4 µM],-5,-2.4,nt
COc1ccc(N(Cc2cc(=O)[nH]c3ccccc23)C(C)=O)cc1,16%,20,-3%[15.4 µM],-5,-1.9,-1
CCN(CC)S(=O)(=O)c1cccc(-c2nnc(SCCOc3ccccc3)o2)c1,-6%,5,0%[15.4 µM],-14,-2.6,33
CCC(=O)N1CCCC(C)(C(=O)Nc2nccc3cccnc23)C1 (configuration not stated),nt,4,nt,-10,-2.0,5
Cn1cc(/C=C2\SC(=O)N(c3ccccc3)C2=O)c2ccccc21,45µM*,2,-6%[15.4 µM],-4,-3.7,-1
O=Cc1ccc(Oc2cnccn2)cc1,7%,7,4%,-3,0.0,4
c1cncc(CNc2cccc(-c3nc4ccccc4[nH]3)c2)c1,-17%,-1,11%[15.4 µM],-3,8.7,-4
CN1OC[C@@H]2CN(Cc3ccccc3)[C@H](c3ccc(-n4ccnc4)cc3)C[C@@H]21,nt,5,nt,-11,-4.2,0
COc1cccc(/C=N/NC(=O)C(=O)Nc2ccccc2OC(F)(F)C(F)F)c1O,-15%,-86*,-1%,11,1.1,-73*
CCN1CCN(C(=O)C2=C(C(=O)O)CCCC2)CC1,11%,5,-21%,-6,-0.4,6
COC(=O)c1ccc(NC(=O)CCS(=O)(=O)c2ccc(C)cc2)cc1,-2%,0,?,-7,-3.3,nt
COc1ccccc1NCC(=O)N/N=C/c1sccc1C,-4%,-1,-6%[15.4 µM],1,-5.3,-7
C=CCC(C#N)(c1ccc(OC)c(OC)c1)c1cnccn1 (configuration not stated),11%,0,nt,-9,-4.0,7
COc1cccc(/C=C2\SC(=S)NC2=O)c1OS(=O)(=O)c1ccc(NC(C)=O)cc1,-2%,-28,2%[15.4 µM],-7,-5.8,0
COc1ccc(NC(C)=O)cc1S(=O)(=O)NCCc1ccccn1,1%,-2,0%,0,0.5,-3
CCc1cc2c(=O)n(CC(=O)NC3CCCCC3)cnc2s1,4%,1,10%,-28,2.3,7
O=C(CSc1nc2ccccc2o1)N1CCN(S(=O)(=O)c2ccc3ccccc3c2)CC1,1%,3,-6%,-6,0.5,0
COC(=O)Cc1c(C)c2ccc(OCc3nn[nH]n3)cc2oc1=O,-4%,-5,?,-5,-3.4,0
COc1ccccc1C(=O)NCCn1ccc2ccccc21,0%,1,16%,-14,-0.9,-12
CC(=O)Nc1cccc(NC(=O)CSc2nnc(Cc3cccn3C)n2-c2ccc(C)cc2)c1,-24%,-13,-10%,-14,0.0,-16
Cc1cc(=O)oc(C)c1C(=O)N1CCCc2ccccc21,-1%,2,-52%[inhibitor],-6,-1.3,1
COC(=O)[C@@]1(Cc2ccc(OC)cc2)[C@H]2c3cc(C(=O)N(C)C)n(Cc4c(CO)[nH]cc(C)c4=O)c3C[C@H]2CN1C(=O)c1ccccc1,-9%,-4,nt,-1,-1.1,-2
O=C(COc1ccccc1[N+](=O)[O-])NCC1COc2ccccc2O1 (configuration not stated),4%,-11,-3%[15.4 µM],-13,-0.8,-1
